High-throughput results from PubChem.
Kir21 block: inhibitors of mouse Kir2.1 inward-rectifier potassium channel; Inward rectifier potassium channel 2 (Mus musculus), P35561; HEK293-Kir2.1, FluxOR thallium flux fluorescence; active compounds read low; B-score at 10 µM; 310,000 tested, 0.85% active;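 active = fluorescence ratio B-score at or below minus 3 SD of library scores, with starting-brightness B-score within 2 SD, cut at about -4.2 in these data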;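 note: channel flux triggered by added potassium and thallium sulfate stimulus; B-score of peak minus minimum fluorescence over baseline after thallium stimulus; more negative B-score means stronger Kir2.1 block with less thallium influx; some compounds called inactive have numbers as strong as hits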
Target sequence (P35561 whole entry, looked up): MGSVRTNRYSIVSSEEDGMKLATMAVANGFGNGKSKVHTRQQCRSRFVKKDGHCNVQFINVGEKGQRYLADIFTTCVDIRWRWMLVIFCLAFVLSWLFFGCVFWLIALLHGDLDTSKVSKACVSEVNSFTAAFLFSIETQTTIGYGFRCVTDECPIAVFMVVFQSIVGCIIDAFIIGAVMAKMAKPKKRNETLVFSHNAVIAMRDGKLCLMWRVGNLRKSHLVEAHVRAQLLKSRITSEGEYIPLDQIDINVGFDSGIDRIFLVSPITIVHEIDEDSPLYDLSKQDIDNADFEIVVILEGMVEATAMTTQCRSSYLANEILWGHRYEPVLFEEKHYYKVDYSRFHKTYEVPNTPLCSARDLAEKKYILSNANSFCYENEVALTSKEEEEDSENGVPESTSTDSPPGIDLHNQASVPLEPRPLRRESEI
* hit, by the source's call.

no.	structure	Kir21 block
1	Cc1cccc2cc(C3CC(c4cccs4)=NN3S(C)(=O)=O)c(Cl)nc12 (stereo unspecified)	-0.58
2	CCOc1ccccc1NC(=S)NC(=O)CCc1ccccc1	0.06
3	O=C(C1=C[C@H](c2ccccc2)C[C@H](OCCCCO)O1)N1CCN(Cc2ccc3c(c2)OCO3)CC1	0.09
4	COc1ccc(/C=N/NC(=O)c2ccco2)cc1Cn1nc(C)cc1C	0.52
5	CCN(CC)S(=O)(=O)c1ccc(OC)c(NC(=O)c2cc3c(=O)n4ccccc4nc3s2)c1	0.78
6	CCc1cc(=O)oc2cc(C)c(CN3CCCC(C)C3)c(O)c12 (stereo unspecified)	0.1
7	CCOc1ccc(/C=N/NC(=O)c2csc(C)c2C)c(OCC)c1	-0.94
8	Cc1cc(NCC(c2ccccc2)c2ccccc2)n2ncnc2n1	-0.46
9	O=C(CCN1C(=O)/C(=C/c2ccccc2)SC1=S)Nc1ccccn1	1.3
10	Cc1ccc2nsnc2c1NC(=S)NC(=O)c1ccco1	1.6
11	O=S(=O)(c1ccc(NC(=S)N/N=C/c2cccc(Oc3ccccc3)c2)cc1)N1CCOCC1	0.37
12	CC1CCCN(C(=O)c2cc3c(=O)n4ccccc4nc3s2)C1 (stereo unspecified)	-0.84
13	O=C(O)c1ccc(NC(=O)C2(c3ccccc3)CCOCC2)cc1	0.16
14	CCNC(=O)c1c(C)[nH]c(C(=O)OCC)c1C	1.9
15	OCC1OC(n2cnc3c(NCCc4ccccc4)ncnc32)C(O)C1O (stereo unspecified)	0.89
16	CCC(=O)NCCc1nc2cc(NC(=O)c3ccccc3Cl)ccc2n1C	1.3
17	CC12CN3CC(C)(CN(C1)C3c1ccc([N+](=O)[O-])o1)C2 (stereo unspecified)	-0.12
18	Cc1ccc(/C=N/NC(=O)c2nnn(-c3nonc3N)c2CSc2ccccc2)s1	-0.93
19	CCCCC1(C)OC(=O)C(=Cc2ccc(-c3ccc(Cl)c(C(=O)O)c3)o2)C(=O)O1 (stereo unspecified)	0.12
20	Cn1ncc2c(Nc3cccc(Cl)c3)nc(Nc3cccc(Cl)c3)nc21	-0.06
21	OC1(c2ccc(Cl)cc2)CCN(Cc2cn[nH]c2-c2ccccc2)CC1	-2
22	O=C(NCc1ccccc1)c1ccc(Br)cc1	-0.97
23	CCN1CCN(Cc2ccc(OCc3ccccc3)cc2)CC1	-0.62
24	COc1ccc(C(CNC(=O)c2cccc(S(=O)(=O)Nc3ccccc3OC)c2)N2CCOCC2)cc1 (stereo unspecified)	0.23
25	CC(C)C[C@H](NC(=O)N1CCCCCC1)C(=O)O	0.85

Sorted by the number under Kir21 block (falling): three of the compounds above.
no.	structure	Kir21 block
15	OCC1OC(n2cnc3c(NCCc4ccccc4)ncnc32)C(O)C1O (stereo unspecified)	0.89
11	O=S(=O)(c1ccc(NC(=S)N/N=C/c2cccc(Oc3ccccc3)c2)cc1)N1CCOCC1	0.37
1	Cc1cccc2cc(C3CC(c4cccs4)=NN3S(C)(=O)=O)c(Cl)nc12 (stereo unspecified)	-0.58

Next results
no.	structure	Kir21 block
26	CCCC(=O)CN1C(=O)C2(OCCO2)c2ccccc21	0.04
27	Cc1cc2cc(CNC(=O)c3ccc(S(=O)(=O)N(C)C)cc3)ccc2n1C	-0.55
28	CCc1ccc(NC(=O)N(Cc2ccco2)C(C)c2cccs2)cc1 (stereo unspecified)	0.18
29	COc1cc(C(=O)NC(=S)Nc2ccc(Cl)c(C(=O)O)c2)cc(OC)c1OC	-0.4
30	COc1cc(S(=O)(=O)N2CCCCCC2)c(OC)cc1Br	0.47
31	Cc1cccc(C)c1C(=NCCN(C)C)c1ccccc1	-0.05
32	Cc1ccc(/C=N\NC(=O)c2cncc(Br)c2)o1	-1.8
33	COc1ccc(C2CC(c3ccc4ccccc4c3)=NN2C(=O)COC(=O)C2CCC(=O)N2)cc1 (stereo unspecified)	0.58
34	O=C(CC1C(=O)NCCN1Cc1ccc(-c2ccccc2)cc1)NCCOc1cccnc1 (stereo unspecified)	-0.73
35	O=c1cc(CNc2cc(Cl)ccc2Cl)nc2sccn12	-0.38
36	COc1ccc(S(=O)(=O)Cc2ccc(C(=O)N3CCN(c4ccc(Cl)cc4)CC3)o2)cc1	1.1
37	Cc1nc2ncccn2c1-c1csc(Nc2ccc(S(N)(=O)=O)cc2)n1	-0.4
38	COc1ccc(-c2noc(CCC(=O)NC3CCCCC3)n2)cc1	1.3
39	CN(C)S(=O)(=O)n1cc(/C=C(\NC(=O)c2ccccc2F)C(=O)NCCCN2CCOCC2)c2ccccc21	0.77
40	CCC(C)NCCCCOc1ccc(Br)cc1 (stereo unspecified)	1
41	CSc1cccc(CNC(=O)C2CCC(=O)N(CCc3ccccn3)C2)c1 (stereo unspecified)	0.36
42	O=C(NC1CC1)C1=C[C@@H](c2c[nH]c3ccccc23)C[C@@H](OCc2ccc(CO)cc2)O1	-1.6
43	Cc1ccc(S(=O)(=O)CC(=O)c2cc(C)c(O)c(C)c2)cc1	0.02
44	CCCOP(=O)(c1ccc(N(C)C)cc1)C(O)c1cc(OC)c(OC)c(OC)c1 (stereo unspecified)	-3.2
45	CCCOc1ccc(-c2nnc(-c3ccncc3)o2)cc1	0.43
46	Cc1ccc(C(=O)NCCCNC(=O)c2ccccc2C)cn1	-0.99
47	COc1cc(OC)cc(C(=O)N[C@H](C(=O)NCc2ccccc2)C(C)C)c1	1.9
48	CCOC(=O)C1=C(CSc2nnnn2C)N(C)C(=O)NC1c1ccccc1 (stereo unspecified)	0.32
49	COc1ccc(N2CCN(C(=O)COC(=O)Cc3c(F)cccc3Cl)CC2)cc1	-0.45
50	Cc1cnc(C(=O)Nc2ccc(F)cc2)cn1	-0.94

Random excerpt: three compounds from above.
no.	structure	Kir21 block
50	Cc1cnc(C(=O)Nc2ccc(F)cc2)cn1	-0.94
36	COc1ccc(S(=O)(=O)Cc2ccc(C(=O)N3CCN(c4ccc(Cl)cc4)CC3)o2)cc1	1.1
47	COc1cc(OC)cc(C(=O)N[C@H](C(=O)NCc2ccccc2)C(C)C)c1	1.9

Next part
no.	structure	Kir21 block
51	CCOC(=O)C(NS(=O)(=O)c1ccccc1)(C(F)(F)F)P(=O)(OC(C)C)OC(C)C (stereo unspecified)	-0.65
52	COc1ccccc1C1C(C(=O)NCc2ccccc2)=C(C)Nc2ncnn21 (stereo unspecified)	0.16
53	CCC(=O)n1nc(-c2cccnc2)nc1NCc1ccccc1	0.04
54	C=CCn1c(SCC(=O)NC(=O)NCCC)nnc1C1CCCCC1	0.14
55	CCNC(=S)N1CCN(c2nc(-c3ccc(F)cc3)cs2)CC1	-1.8
56	S=C(c1cn(CCOc2ccccc2)c2ccccc12)N1CCCC1	-0.95
57	S=c1[nH]nc(NCCCN2CCOCC2)s1	0.23
58	CC(/C=C/c1ccco1)=N/NC(=O)OC(C)(C)C	-2.8
59	CC(C)(C)c1ccc(/C=N/NC(=O)C2CCCC2)cc1	0.28
60	O=C(CSc1nc2sc3c(c2c(=O)[nH]1)CCC3)NCCO	0.46
61	CC(=O)Nc1sc(C)c(C)c1CN1CCN(Cc2ccccc2)CC1	-2.1
62	COCCNC(=O)c1ccccc1NC(=O)CSc1ccc(C)cc1	1.3
63	Cc1ccc(OCC(=O)Nc2cccc(-c3nnc(-c4ccccc4)o3)c2)c(C)c1	-0.12
64	COc1cccc(-c2nn(C)c3sc(C(=O)N4CCN(c5ccccc5)CC4)cc23)c1	-0.27
65	Cc1cccc(-n2cnc3c(c2=O)c2nc4ccccc4nc2n3Cc2ccco2)c1	-0.13
66	CCOC(=O)c1cc2sccc2n1CC(=O)OC	0.5
67	CCOC(=O)c1c(C)c(C(=O)NCc2ccccn2)c(C)n1C	-0.63
68	CN(CC(=O)Nc1ccccc1Cl)C(=O)COC(=O)c1ccc(S(=O)(=O)C(F)F)cc1	0.26
69	CC(=O)c1ccc(N2CCN(C(=O)/C=C/c3cccs3)CC2)cc1	-1.6
70	CC(Oc1cccc(Cl)c1)C(=O)NC1CC(C)(C)NC(C)(C)C1 (stereo unspecified)	0.2
71	Brc1ccc(-c2nc(-c3ccccc3)no2)o1	0.23
72	CCOCCCNC(=O)C(c1ccc(OC)cc1)N(Cc1cccs1)C(=O)CNC(C)=O (stereo unspecified)	-0.56
73	CCC1CCC(C(=O)NC(C(=O)NCCc2ccc(S(N)(=O)=O)cc2)C(C)C)CC1 (stereo unspecified)	-2.9
74	COC(=O)Cc1cnc(NC(=O)C2C3CCC(C3)C2C(=O)O)s1 (stereo unspecified)	0.85
75	COc1ccc(NC(C)=O)cc1NC(=O)c1ccc(Cl)cc1	2.6
76	CCOc1cc(CNCc2ccccn2)cc(Cl)c1OC	1.8
77	O=C(Cc1ccc([N+](=O)[O-])cc1)Nc1ccc(O)cc1C(=O)O	-2.6
78	O=C(Cc1ccsc1)N1CCN(S(=O)(=O)c2cc(C(F)(F)F)cc(C(F)(F)F)c2)CC1	0.16
79	CC(=O)Nc1c(O)[nH]c2ccccc12	0.25
80	COc1cc(S(=O)(=O)Nc2ccc(C)cc2)ccc1NC(=O)c1ccncc1	-0.09
81	CCC(CC)C(=O)N1N=C(c2ccc(NS(C)(=O)=O)cc2)CC1c1ccc(C)cc1 (stereo unspecified)	-1.1
82	Cc1noc(C)c1CSc1nnc(-c2ccncc2)n1-c1cccc(Cl)c1C	-0.94
83	CC(C)Oc1ccc(C(=O)OC(C)C(=O)NC2CCCCC2C)cc1 (stereo unspecified)	0.51
84	Cc1cccc(N2CCN(C(=O)Cn3cccc3C(=O)c3ccccc3)CC2)c1C	1.2
85	CCc1c(C(C)S(=O)(=O)c2ccc(C)cc2)[nH]c(=O)n1-c1ccc(OC(F)(F)F)cc1 (stereo unspecified)	-0.42
86	CCOc1ccc(N(CCC#N)S(=O)(=O)c2ccc(OC)cc2)cc1	-1.8
87	CCOC(=O)c1sc(=NC(=O)c2c(F)cccc2F)n(C)c1C	-1.7
88	O=C(Nc1ccccc1N1CCCC1)c1ccco1	-0.95
89	O=C(N1CCOCC1)N1CCC(n2nnc3ccccc32)CC1	-0.4
90	CCN1C(=O)CC(N2CCN(c3cccc(OC)c3)CC2)C1=O (stereo unspecified)	-0.04
91	O=c1cc(-c2ccncc2)oc2c1ccc1ccccc12	-0.4
92	FC(F)(F)c1ccc(CN2C[C@@H]3C(c4ccc(Cl)nc4)C4(c5cccnc5)CC3(C4)[C@H]2c2ccccc2)cc1 (stereo partly specified)	2.4
93	O=C(CNS(=O)(=O)c1ccc(F)cc1)Nc1ccccc1	0.59
94	CC(=O)C1(C)N(O)C(C)(C)C(c2cccs2)=[N+]1[O-] (stereo unspecified)	-0.37
95	COc1ccc(CCNC(=O)CC2Oc3ccc(Cl)cc3NC2=O)cc1OC (stereo unspecified)	0.9
96	O=C(COC(=O)c1c[nH]c(=O)[nH]c1=O)Nc1ccccc1Br	-0.84
97	CS(=O)(=O)N1CCC(C(=O)NCc2ccc(F)cc2Cl)CC1	0.52
98	O=C(NCCc1nnc2ccc(N3CCCCCC3)nn12)c1ccccc1F	-0.97
99	COc1ccc(/C=C2\SC(=O)N(CCNC(=O)Cn3cnnn3)C2=O)cc1	0.16
100	Cc1ccc(NC(=S)N(CCCN2CCOCC2)Cc2ccco2)cc1	0.56

Entries by screen from above.
Compounds 33–39 in Kir21 block, in turn: 0.58, -0.73, -0.38, 1.1, -0.4, 1.3, 0.77

New compounds follow
no.	structure	Kir21 block
101	O=C(Oc1ccc(N2C(=O)C3C4CCC(C4)C3C2=O)cc1)c1ccco1 (stereo unspecified)	-0.59
102	CS(=O)(=O)N1CCN(c2ccc(NC(=O)c3cc4ccccc4o3)cc2)CC1	-0.09
103	CSc1nc(NC(C)C)nc(N2CCOCC2)n1	0.92
104	CCOC(=O)c1cc(C)n(CCc2ccccc2)c1C	-0.73
105	Cc1ccc(-n2c(C)c3c(C)nnc(C)c3c2C)cc1C	-2.7
106	O=C(Nc1ccccc1)C1CCCN(S(=O)(=O)c2ccc(-n3cnnn3)cc2)C1 (stereo unspecified)	-1.9
107	CC(=O)CC1(C)OC(N)=C(C#N)C1(C#N)C#N (stereo unspecified)	1.3
108	CCOC(=O)Cn1c(=O)c2c(nc(Br)n2CC(=O)OCC)n(C)c1=O	1.4
109	CCCCC(CC)CNC(=O)CC1Nc2c3ccccc3nc(=S)n2C1=O (stereo unspecified)	1.8
110	NC(=O)c1ccc(NC(=O)COC(=O)c2cccc(Oc3ccccc3)c2)cc1	-0.4
111	O=C(CSc1ccccc1)NCC1(N2CCOCC2)CCCCC1	-1.2
112	COc1cc(OC)cc(C(=O)NC(=S)Nc2ccc3c4c(cccc24)CC3)c1	0.03
113	COc1ccc(N(CC(=O)Nc2cc(C)ccc2C)S(=O)(=O)c2ccccc2[N+](=O)[O-])c(OC)c1	-0.51
114	CCOc1ccc(N(CC(=O)Nc2ccc3c(c2)OCCO3)S(=O)(=O)c2c(C)noc2C)cc1	-0.04
115	COc1ccc(OC)c(NC(=O)Nc2nnc(N3CCCCC3C)s2)c1 (stereo unspecified)	-0.28
116	CC1CCN(c2ccc(C(F)(F)F)cc2N)CC1	0.7
117	Cc1cccnc1NC(=O)Nc1cccs1	0.92
118	COc1cc(C)c(Cl)cc1S(=O)(=O)N(C)C	0.35
119	CC1(C)C(c2cccs2)=[N+]([O-])C2(CCCCC/C2=N\O)N1O (stereo unspecified)	-1.7
120	Cc1ccc(C(=O)CC2(O)C(=O)N(Cc3ccccc3)c3ccccc32)o1 (stereo unspecified)	0.99
121	COc1cc(-c2nc(Cc3ccccc3Cl)no2)cc(OC)c1OC	2.2
122	NC(=O)C1CCN(CCC(=O)Nc2cccc(Cl)c2)CC1	-0.52
123	N#C[C@@H]1N(Cc2ccccc2)C(=O)[C@H]2CC3C=CC21O3 (stereo partly specified)	-0.67
124	CC(=O)Nc1ccc(C(=O)N/N=C/c2ccccc2OCc2ccccc2)cc1	-0.78

An excerpt, and most or all hits are left out here.
